Screening data as filed in PubChem BioAssay.
Insulin prom inh – inhibitors of insulin promoter-driven GFP, primary screen, imaging, TRM-6 cells (human fetal islet line), eGFP reporter, cell count | reporter expression induced with tamoxifen | inhibition, % at 2 µM | 130,000 compounds, 0.9% hits | AID 1273, 2008;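 active = inhibition above the mean plus 3 SD, with well images judged a real hit on visual review, cut at about 60% in these data, passing the limit was not always enough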
RGS16-Gao – modulators of RGS16 binding to Galphao, primary screen, biochemical, human proteins, multiplexed bead flow cytometry. Regulator of G-protein signaling 16 (Homo sapiens) + Guanine nucleotide-binding protein …. 220,000 compounds, 0.38% hits. AID 1441, 2008. binding response (% of control), % at 10 µM. bead-based flow cytometry RGS16-Galphao binding, fluorescence; actives lie on both sides;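 active = below 25% or above 175%, edge rows of some plates excepted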;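 note: Galphao activated by GDP with aluminum fluoride before binding; 100% = wells without compound and 0% = beads without RGS; some results beyond the cut were filed as inactive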
Target sequence (O15492 whole entry, looked up): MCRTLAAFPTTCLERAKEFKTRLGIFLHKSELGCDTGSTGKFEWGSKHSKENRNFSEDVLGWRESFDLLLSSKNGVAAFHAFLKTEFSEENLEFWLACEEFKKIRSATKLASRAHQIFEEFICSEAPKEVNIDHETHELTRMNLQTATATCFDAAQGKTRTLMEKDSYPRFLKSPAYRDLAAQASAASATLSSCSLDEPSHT
Target sequence (P09471 whole entry, looked up): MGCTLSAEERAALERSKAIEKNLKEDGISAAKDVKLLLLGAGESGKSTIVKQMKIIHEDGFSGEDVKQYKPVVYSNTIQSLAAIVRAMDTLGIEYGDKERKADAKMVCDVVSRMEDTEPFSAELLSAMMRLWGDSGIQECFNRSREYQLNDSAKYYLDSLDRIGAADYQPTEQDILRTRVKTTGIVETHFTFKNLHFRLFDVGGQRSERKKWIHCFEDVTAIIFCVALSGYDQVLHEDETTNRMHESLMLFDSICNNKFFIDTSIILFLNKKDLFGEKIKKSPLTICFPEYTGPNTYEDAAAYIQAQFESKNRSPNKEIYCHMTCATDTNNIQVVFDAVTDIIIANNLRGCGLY
GALR2 agonist – GALR2 receptor agonists, primary screen, cell-based. Galanin receptor type 2 (Homo sapiens), O43603. GALR2-expressing cells, agonist activation read-out. activation, %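 (tested at 5 µM)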. 140,000 compounds, 0.48% hits;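 active = above mean plus 3 SD of all compounds, about 5% in these data, not always enough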;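 note: 0% = vehicle buffer wells and 100% = reference agonist at full effect; tested in CHO reporter cells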
Target sequence (O43603 whole entry, looked up): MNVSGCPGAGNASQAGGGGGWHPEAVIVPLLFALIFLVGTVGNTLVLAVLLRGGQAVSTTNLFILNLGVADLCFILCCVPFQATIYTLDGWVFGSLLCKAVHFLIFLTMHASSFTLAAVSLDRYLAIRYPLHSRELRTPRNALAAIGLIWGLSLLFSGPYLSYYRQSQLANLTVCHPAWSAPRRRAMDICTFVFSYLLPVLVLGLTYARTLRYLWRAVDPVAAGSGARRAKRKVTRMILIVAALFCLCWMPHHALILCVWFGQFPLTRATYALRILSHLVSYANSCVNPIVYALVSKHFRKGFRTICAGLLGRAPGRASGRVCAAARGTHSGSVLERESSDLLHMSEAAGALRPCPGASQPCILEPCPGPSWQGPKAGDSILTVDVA
PKD1 inh – inhibitors of human PKD1 kinase, biochemical, fluorescence polarization; Serine/threonine-protein kinase D1 (Homo sapiens), Q15139; PKD1 kinase fluorescence polarization assay; inhibition, %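 (about 10 µM by stock and volumes)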; 200,000 compounds, 0.056% hits; AID 797, 2007;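 active = inhibition of 50% or more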;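 note: controls were vehicle for no effect and a reference inhibitor for full effect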
HSV replic up – enhancers of HSV replication in host cells, fold increase, host cell viability; HSV replication augmentation in cells; maximum fold increase; 220,000 compounds, 0.005% hits; AID 1956, 2009;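 active = peak rise of 1.5-fold or more in the series; tested in PC3 cells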;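 note: first round at 10 µM; read as green reporter fluorescence; hits show the peak of a series up to 25 µM; 1 = signal of infected wells without compound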
Insulin prom inh cell count – second read-out of Insulin prom inh, no call of its own (marks repeat the call); normalized cell count, %; measured here: cell count, toxicity; reference of the scale not given here;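 cells exposed to compound for 48 h; stained nuclei by imaging scaled within each plate; lower means fewer cells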
HSV replic up primary fold – second read-out of HSV replic up, no call of its own (marks repeat the call); fold increase; compound at 10 µM; measured here: primary screen fold increase 10 uM; tested in PC3 cells;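 GFP signal in the first replicate; 1 = infected wells without compound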
* marks the source's active call; other numbers are inactive results; i = inactive; · = not tested or not shown; & = joins results of further samples; [ ] = remark or other dose.

SMILES,Insulin prom inh cell count,Insulin prom inh,HSV replic up,GALR2 agonist,RGS16-Gao,HSV replic up primary fold,PKD1 inh
FC(F)(F)c1ccccc1NC(=S)N1CCN(Cc2ccc3c(c2)OCO3)CC1,·,·,i,·,87,0.98,2
COc1cc(/C=N/NC(=S)Nc2cccc(S(=O)(=O)N(C)C)c2)cc(OC)c1O,121,-47,i,-1.9,98,0.97,3
Cn1cc(CC(=O)NC2CCCCC2)c2ccccc21,83,-14,i,·,101,0.87,1
CC(NC(=O)COC(=O)c1ccc2ccccc2n1)C1CC2CCC1C2 (stereo not given),·,·,i,·,103,0.69,-7
O=C(O)c1nn(-c2cccc(Cl)c2)c(=O)cc1O,119,18,i,·,103,0.94,-7
O=C(NCCc1nnc2ccc(NCc3ccc(F)cc3)nn12)c1ccccc1,85,6,i,·,100,1.2,-4
CC[n+]1c(/C=C/N(C)c2ccccc2)oc2ccc(Cl)cc21,·,·,i,-1.0,89,1.1,4
Cc1cc(=O)oc2cc(NS(=O)(=O)c3ccc(F)cc3)ccc12,·,·,i,·,93,0.94,·

By substructure: the compounds so far containing fluorine
SMILES,Insulin prom inh cell count,Insulin prom inh,HSV replic up,GALR2 agonist,RGS16-Gao,HSV replic up primary fold,PKD1 inh
FC(F)(F)c1ccccc1NC(=S)N1CCN(Cc2ccc3c(c2)OCO3)CC1,·,·,i,·,87,0.98,2
O=C(NCCc1nnc2ccc(NCc3ccc(F)cc3)nn12)c1ccccc1,85,6,i,·,100,1.2,-4
Cc1cc(=O)oc2cc(NS(=O)(=O)c3ccc(F)cc3)ccc12,·,·,i,·,93,0.94,·

Later entries:
SMILES,Insulin prom inh cell count,Insulin prom inh,HSV replic up,GALR2 agonist,RGS16-Gao,HSV replic up primary fold,PKD1 inh
Nc1nonc1C(=O)OCC(=O)N1CCOCC1,119,7,i,-2.1,102,0.7,-10
CCCn1c(=N)n(CC(=O)OCC)c2ccccc21,121,13,i,-3.4,97,0.85,-7
COc1ccc(C2CC(c3cccs3)=NN2c2ccccc2)cc1 (stereo not given),·,·,i,·,45,1,-3
COc1ccc(CNC(=O)Nc2ccc3c(c2)N(C)C(=O)CS3)cc1,·,·,i,·,98,1,3
COC(=O)c1sccc1NC(=O)C1CC=CCC1C(=O)O (stereo not given),114,-4,i,-2.1,102,0.79,-9
COc1ccccc1-c1nc2ccccc2nc1-c1ccccc1,108,-11,i,-1.1,107,1.2,15
CC(C)N1CCC(N2CCN(Cc3cc4c(cc3Cl)OCO4)CC2CCO)CC1 (stereo not given),38,-61,i,·,109,0.95,0
Cn1c(=O)c2c(nc(N3CCN(c4ccccc4)CC3)n2CCCc2ccccc2)n(C)c1=O,65,23,i,-0.8,30,0.9,-6

Next records.
SMILES,Insulin prom inh cell count,Insulin prom inh,HSV replic up,GALR2 agonist,RGS16-Gao,HSV replic up primary fold,PKD1 inh
O=C(COc1ccc(Cl)cc1Cl)Nc1ccccc1NS(=O)(=O)c1cccs1,103,37,i,·,106,1.1,-4
CCOC(=O)c1c(-c2cccc([N+](=O)[O-])c2)csc1NC(=O)C1CCCCC1,·,·,i,-2.1,100,1,-5
CCC(CC)NC(=O)c1cccc(NC(=O)C(C)C)c1,85,25,·,-0.8,102,·,-3
Cc1ccc(NC(=O)/C=C/c2ccc([N+](=O)[O-])s2)c(C)c1,12,-179,·,0.6,115,·,-10
O=C(Cn1c(=O)oc2cc(S(=O)(=O)N3CCCC3)ccc21)Nc1cccc(C(F)(F)F)c1,·,·,i,0.4,99,0.96,-15
COc1cc(CNC(C)C)c(Br)cc1OC1CCCC1,·,·,i,·,98,1,4
Cc1nc2ccccc2n1CC(=O)N/N=C/c1cccnc1,111,-6,i,·,102,1,-8
C=C(C)Cn1c(C)cc(C)c(S(=O)(=O)c2ccc(C)cc2)c1=O,·,·,i,·,97,1,-1

(more compounds)
SMILES,Insulin prom inh cell count,Insulin prom inh,HSV replic up,GALR2 agonist,RGS16-Gao,HSV replic up primary fold,PKD1 inh
O=S(=O)(c1cccc(C(F)(F)F)c1)N(CCCN1CCOCC1)Cc1cccs1,·,·,i,-1.9,106&100,0.98&1,6&-6
O=C(Oc1cccc(-c2cnc3ccccc3n2)c1)c1ccco1,74,-5,i,-1.0,101,1,2
O=S(=O)(Nc1ccc2nc(-c3ccc(Br)o3)[nH]c2c1)c1ccccc1,·,·,i,0.1,88,0.92,-15
O=C(NN1CCOCC1)c1cn(-c2ccccc2)nc1-c1cccs1,·,·,i,·,108,1,·
CCC(c1nnnn1C1CCCC1)N1CCN(c2cccc(OC)c2)CC1 (stereo not given),16,-8,i,·,112,0.99,6
CC(C)Oc1ccc(-c2nn(-c3ccccc3)cc2/C=c2\sc3ncnn3c2=O)cc1,155,11,·,0.7,120,·,2
Cc1c(CC(Cl)(Cl)Cl)c2c(n1O)CC(C)(C)CC2=O,134,27,i,-2.2,100,0.96,-1
Cc1ccc2c(c1)c1c3n2CC(=C2C(=O)OC(C)(C)OC2=O)NC3CCC1 (stereo not given),179,-42,i,-0.6,97,1.1,1

One compound at a time, from the list above. Screens in order: Insulin prom inh cell count	Insulin prom inh	HSV replic up	GALR2 agonist	RGS16-Gao	HSV replic up primary fold	PKD1 inh
Cc1ccc2c(c1)c1c3n2CC(=C2C(=O)OC(C)(C)OC2=O)NC3CCC1 (stereo not given) across the screens: 179	-42	i	-0.6	97	1.1	1
O=S(=O)(Nc1ccc2nc(-c3ccc(Br)o3)[nH]c2c1)c1ccccc1 across the screens: ·	·	i	0.1	88	0.92	-15
CC(C)Oc1ccc(-c2nn(-c3ccccc3)cc2/C=c2\sc3ncnn3c2=O)cc1 across the screens: 155	11	·	0.7	120	·	2
O=C(Oc1cccc(-c2cnc3ccccc3n2)c1)c1ccco1 across the screens: 74	-5	i	-1.0	101	1	2
O=S(=O)(c1cccc(C(F)(F)F)c1)N(CCCN1CCOCC1)Cc1cccs1 across the screens: ·	·	i	-1.9	106&100	0.98&1	6&-6

Other entries.
SMILES,Insulin prom inh cell count,Insulin prom inh,HSV replic up,GALR2 agonist,RGS16-Gao,HSV replic up primary fold,PKD1 inh
O=C(COC(=O)Cc1cccs1)Nc1ccccc1F,119,-22,i,-1.8,103,0.94,0
CN(C)c1ccc(/C=N/NC(=O)CNC(=O)c2ccco2)cc1,·,·,i,·,103,0.97,-12
CC(C)(C)C(=O)Nc1ccccc1C(=O)Nc1ccncc1,60,-119,i,-1.7,97,1,-2
CC(C)CC1CCCCC1OC(=O)CN1CCCCC1 (stereo not given),86,20,i,·,97,0.95,-8
COc1ccc(S(=O)(=O)N(C)c2ccc(OCC(=O)Nc3cc(C)on3)cc2)cc1,119,-10,i,-3.3,103,0.97,0
CCN(CC)CCCN1C(=O)c2oc3ccccc3c(=O)c2C1c1cccs1 (stereo not given),100,-7,i,0.9,98,0.84,-4
Cc1ccccc1CN(C)CC(=O)NC(C)CCc1ccccc1 (stereo not given),·,·,i,·,101,0.99,7
COCCCNC(=S)NCCCNc1nc2cc(C)cc(C)c2cc1C#N,107,-54,i,·,105,0.8,-2

Going on with the list.
SMILES,Insulin prom inh cell count,Insulin prom inh,HSV replic up,GALR2 agonist,RGS16-Gao,HSV replic up primary fold,PKD1 inh
C=CCOc1c(CNc2nccs2)cccc1OCC,124,-81,i,-0.2,101,1,0
Cn1c(=O)[nH]c(NC2CCCCC2)c(N=O)c1=O,·,·,i,-1.2,127,1.1,-4
CCOC(=O)c1[nH]c2ccc(Cl)cc2c1-c1ccccc1,97,8,i,0.7,97,0.96,1
Cc1nc(/C=C/c2ccccc2)cc(/C=C/c2ccccc2)n1,111,-29,i,-1.9,94,0.87,-6
COc1ccc(-c2cc(C(=O)OCC(=O)Nc3cc(C)on3)c3ccccc3n2)cc1OC,41,13,i,-0.7,103,0.89,-10
O=S(=O)(NCc1cn2ccsc2n1)c1cccs1,·,·,i,-2.4,154,1.1,-2
CCn1c(C(=O)O)c(CC(=O)NC2CCCCCC2)c2ccccc21,117,14,i,·,106,0.98,-3
COc1ccc2c(c1)CCc1sc(NC(=O)c3ccco3)nc1-2,·,·,i,-1.6,101,0.96,-2

The results go on.
SMILES,Insulin prom inh cell count,Insulin prom inh,HSV replic up,GALR2 agonist,RGS16-Gao,HSV replic up primary fold,PKD1 inh
COC(=O)c1ccc(N2C(=O)c3ccc(OC)c(OC)c3C2=O)cc1,114,38,i,-2.3,·,1,1
Cn1nc2c(c1C(=O)N1CCCC(C(=O)c3cc(F)ccc3F)C1)CCCC2 (stereo not given),·,·,i,·,97,0.92,1
CCOc1ccc(N2CSC3=C(C#N)C(c4ccco4)CC(=O)N3C2)cc1 (stereo not given),171,22,i,-2.5,76,0.94,-6
COc1ccc(S(=O)(=O)NCCc2c(C)nn(C)c2Oc2ccccc2)cc1,·,·,i,-1.5,99,1.1,6
O=C(CN1CCCCCC1)OCCN=C1NS(=O)(=O)c2ccccc21,126,-23,i,0.6,106,0.94,-4
COc1ccc(OC)c2c1C(=O)C(Cl)=C(Cl)C2=O,·,·,i,·,-14*,1,·
NC(=O)c1nsc(C(=O)N(CC(=O)NCc2ccco2)c2ccccc2F)c1N,86,23,i,1.5,48,1.1,-3
COc1ccc(-n2c(SCC(=O)OC(C)C)nnc2-c2ccccn2)cc1,120,0,i,0.0,242*[activator],0.86,4

Quoted at random: two compounds from above
SMILES,Insulin prom inh cell count,Insulin prom inh,HSV replic up,GALR2 agonist,RGS16-Gao,HSV replic up primary fold,PKD1 inh
Cn1nc2c(c1C(=O)N1CCCC(C(=O)c3cc(F)ccc3F)C1)CCCC2 (stereo not given),·,·,i,·,97,0.92,1
COc1ccc(OC)c2c1C(=O)C(Cl)=C(Cl)C2=O,·,·,i,·,-14*,1,·

The results go on:
SMILES,Insulin prom inh cell count,Insulin prom inh,HSV replic up,GALR2 agonist,RGS16-Gao,HSV replic up primary fold,PKD1 inh
O=C(NN=C1CCCCCCCCCCC1)c1ccccc1F,67,-53,i,1.2,134,0.98,3
COCc1[nH]nc2c1C(c1ccccc1F)C(C#N)=C(N)O2 (stereo not given),42,-12,i,-1.3,104,0.97,-10
COc1ccc(/C=N/NC(=O)c2cnccn2)c(OC)c1OC,·,·,i,·,100,1,·
COc1cc(C=O)cc(Br)c1OCC(N)=O,·,·,i,·,109,1.1,-5
Cc1ncc(CO)c(/C=N/NC(=O)c2cc3c(s2)CCCC3)c1O,·,·,i,·,87,0.82,2
COc1ccccc1C(=O)NC(CCSC)C(=O)OCC(=O)NC(=O)NCc1ccco1 (stereo not given),92,-10,i,0.1,99,0.96,5
